KCNQ2 enhance – potentiators of rat KCNQ2 potassium channel. O88943. CHO-K1 KCNQ2, FluxOR thallium flux fluorescence; active compounds read high. B-score at 10 µM. 310,000 compounds, 0.54% hits. AID 2239;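 active = fluorescence ratio B-score at least 3 SD of library B-scores, with initial fluorescence B-score within 3 SD, cut at about 5.3 in these data; same plate scores as AID 2156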;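 also: B-score of peak minus minimum over baseline fluorescence ratio after K+ and Tl+ stimulus; positive B-score means potentiation of KCNQ2 with more thallium influx and brighter signal; only the inactives scoring about 0 or higher are listed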
Target sequence (O88943 whole entry, looked up): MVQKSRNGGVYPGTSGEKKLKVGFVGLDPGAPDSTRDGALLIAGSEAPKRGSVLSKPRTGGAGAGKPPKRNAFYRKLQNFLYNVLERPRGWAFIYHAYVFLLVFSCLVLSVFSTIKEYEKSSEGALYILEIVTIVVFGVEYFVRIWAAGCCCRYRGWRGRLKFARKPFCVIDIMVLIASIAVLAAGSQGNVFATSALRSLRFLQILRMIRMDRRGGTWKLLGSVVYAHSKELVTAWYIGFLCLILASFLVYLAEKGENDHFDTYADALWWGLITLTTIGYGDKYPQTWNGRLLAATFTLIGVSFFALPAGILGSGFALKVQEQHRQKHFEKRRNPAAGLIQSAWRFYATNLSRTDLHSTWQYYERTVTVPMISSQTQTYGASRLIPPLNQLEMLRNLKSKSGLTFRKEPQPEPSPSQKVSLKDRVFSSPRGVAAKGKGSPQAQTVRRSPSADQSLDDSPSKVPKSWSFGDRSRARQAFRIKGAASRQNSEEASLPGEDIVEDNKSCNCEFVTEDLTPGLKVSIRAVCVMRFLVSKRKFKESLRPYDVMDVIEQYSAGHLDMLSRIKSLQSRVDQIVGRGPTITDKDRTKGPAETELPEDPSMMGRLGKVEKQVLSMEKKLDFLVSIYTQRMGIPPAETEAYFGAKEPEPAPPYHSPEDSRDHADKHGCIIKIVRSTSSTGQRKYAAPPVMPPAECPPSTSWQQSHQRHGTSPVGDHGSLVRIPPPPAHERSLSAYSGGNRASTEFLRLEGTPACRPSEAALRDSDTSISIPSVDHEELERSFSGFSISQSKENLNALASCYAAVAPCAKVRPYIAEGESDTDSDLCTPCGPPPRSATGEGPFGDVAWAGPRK
KCNQ2 enhance baseline – second read-out of KCNQ2 enhance, no call of its own (marks repeat the call); B-score; compound at 10 µM; measured here: initial fluorescence intensity artifact check;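 brightness before thallium and not channel activity; 0 = typical well and far values either way flag optical interference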
Starred values were filed as active, the others as inactive. This is a subset; count on the stated rates, not on these rows.

For O=C(C[n+]1ccc(C(=O)NCc2ccccc2)cc1)c1ccc(OC(F)F)cc1 the results were KCNQ2 enhance 0.8 and KCNQ2 enhance baseline -0.03.
For COC(=O)c1ccc(-n2nc(C(F)(F)F)c3c2-c2ccoc2CC3)cc1 the results were KCNQ2 enhance 0.56 and KCNQ2 enhance baseline 0.96.
`COc1cc(C2NC(=O)NC(C)=C2C(=O)OCc2ccc(C)cc2)cc(OC)c1OC` (centres undefined) gave KCNQ2 enhance 0.81 and KCNQ2 enhance baseline -1.67.
`CCOC(=O)c1cc(C(=O)Nc2ccc(C)c(F)c2)nn1C` gave KCNQ2 enhance 1.58 and KCNQ2 enhance baseline 0.24.
Screening Cc1cc(Cl)ccc1NC(=S)NCc1cccs1 returned KCNQ2 enhance 5.05 and KCNQ2 enhance baseline 0.56.
`Cn1ccnc1/C(=N\NC(=O)c1ccc(O)cc1)c1cccc([N+](=O)[O-])c1` gave KCNQ2 enhance 0.4 and KCNQ2 enhance baseline 0.88.
Screening CCCCOC(=O)CCc1nc2ccccc2[nH]1 returned KCNQ2 enhance 3.38 and KCNQ2 enhance baseline -0.89.
Screening CC1CCN(S(=O)(=O)c2cn(CC(=O)N3CCN(C)CC3)c(=O)c3ccccc23)CC1 returned KCNQ2 enhance 0.5 and KCNQ2 enhance baseline 1.16.
For c1ccc(CNc2ccc3ccccc3n2)nc1 the results were KCNQ2 enhance 0.09 and KCNQ2 enhance baseline 0.
Nc1nc(NCC(=O)O)nc(N2CCCCCC2)c1[N+](=O)[O-] was read as KCNQ2 enhance 0.42 and KCNQ2 enhance baseline 1.31.
CCCC(O)(CCN1CCOCC1)c1ccc(Br)cc1 (centres undefined) was read as KCNQ2 enhance 0.23 and KCNQ2 enhance baseline 3.21.
CC(C)[C@H](NC(=O)N1CC(=O)Nc2ccccc21)C(=O)N[C@@H](Cc1ccccc1)C(=O)O was read as KCNQ2 enhance 0.2 and KCNQ2 enhance baseline 1.03.
For COc1cccc(OCc2nnc(SCC(=O)OCc3ccccc3)o2)c1 the results were KCNQ2 enhance 1.69 and KCNQ2 enhance baseline 1.85.
For O=C(Oc1c(Cl)cc(Cl)c2cccnc12)c1cccc([N+](=O)[O-])c1 the results were KCNQ2 enhance 1.5 and KCNQ2 enhance baseline -0.59.
Screening Cc1ccc(NS(=O)(=O)c2ccc(Cl)c(C(=O)O)c2)cc1S(=O)(=O)N1CCOCC1 returned KCNQ2 enhance 0.4 and KCNQ2 enhance baseline -1.71.
Screening CC1C2CC(CC1(C)C)N(C(=O)Nc1ccc3nccnc3c1)C2 (centres undefined) returned KCNQ2 enhance 0.05 and KCNQ2 enhance baseline -1.79.
CCOC(=O)CSc1ncc(-c2ccccc2)cn1 was read as KCNQ2 enhance 0.26 and KCNQ2 enhance baseline -0.01.
`CC(=O)c1c(C)n(-c2ccc(Br)cc2)c2ccc(O)cc12` gave KCNQ2 enhance 0.2 and KCNQ2 enhance baseline 2.18.
`O=C(NCc1ccco1)NC1CCCCC1` gave KCNQ2 enhance 1.35 and KCNQ2 enhance baseline 0.54.
For O=C1CS/C(=N/N=C/c2ccccc2)N1c1ccc(O)cc1 the results were KCNQ2 enhance 0.75 and KCNQ2 enhance baseline 1.43.
For C=CCN(CC=C)S(=O)(=O)c1ccc(NC(=S)NC(=O)c2ccco2)cc1 the results were KCNQ2 enhance 0.77 and KCNQ2 enhance baseline -0.01.
Screening COc1ccc(C(=O)N2CCC(C(=O)O)CC2)cc1 returned KCNQ2 enhance 1.81 and KCNQ2 enhance baseline -0.01.
Screening CN(C(=O)c1cc2ccccc2cc1O)C1CCCCC1 returned KCNQ2 enhance 0.03 and KCNQ2 enhance baseline -0.21.
Screening COc1ccc(-n2c(SCc3cccnc3)nc3c(c2=O)SCC3)cc1OC returned KCNQ2 enhance 0.91 and KCNQ2 enhance baseline -0.04.
CCCCn1nc(C(=O)NNC(=O)c2ccncc2)c2ccccc2c1=O was read as KCNQ2 enhance 0.02 and KCNQ2 enhance baseline -1.55.
Screening CC(C)CCn1c(Sc2nc3ccccc3o2)nc2c1c(=O)[nH]c(=O)n2C returned KCNQ2 enhance 0.17 and KCNQ2 enhance baseline 0.91.
Screening NC(=O)C1c2ccccc2Oc2ccccc21 returned KCNQ2 enhance 0.55 and KCNQ2 enhance baseline -1.93.
COc1ccc(S(=O)(=O)Nc2c(C)cccc2C)cc1-n1cnnn1 was read as KCNQ2 enhance 0.51 and KCNQ2 enhance baseline 1.42.
`CC1CC(C)CN(S(=O)(=O)c2ccc3c(c2)oc(=O)n3CC(=O)N(C)Cc2ccccc2)C1` (centres undefined) gave KCNQ2 enhance 2.72 and KCNQ2 enhance baseline -0.16.
`COC(=O)C(C)(C)ONC(=O)Nc1ccc([N+](=O)[O-])cc1` gave KCNQ2 enhance 1.77 and KCNQ2 enhance baseline -0.03.
Screening OCCC1CN(Cc2cc3c(cc2Cl)OCO3)CCN1Cc1ccccc1 (centres undefined) returned KCNQ2 enhance 1.58 and KCNQ2 enhance baseline -2.03.
CCNc1nc(N2CCCCC2)nc(-n2nnc(C(=O)OCC)c2C)n1 was read as KCNQ2 enhance 0.77 and KCNQ2 enhance baseline 0.09.
For Cc1ccc(C(=O)/C=C/C(=O)O)cc1 the results were KCNQ2 enhance 2.3 and KCNQ2 enhance baseline -0.51.
Screening Cc1nn(CC(=O)N2CCCC2)c(=O)c2nn(-c3ccccc3)c(C)c12 returned KCNQ2 enhance 1.47 and KCNQ2 enhance baseline 0.3.
Screening CC(=O)Nc1nc2nc(-c3ccccc3)cc(-c3ccccc3)n2n1 returned KCNQ2 enhance 0.31 and KCNQ2 enhance baseline -0.16.
`COc1c2ccoc2c(OC[C@@H](O)C(C)(C)O)c2oc(=O)ccc12` gave KCNQ2 enhance 0.76 and KCNQ2 enhance baseline -0.22.
Screening COc1ccc(C(=O)N2CCN=C2SC)cc1 returned KCNQ2 enhance 0.67 and KCNQ2 enhance baseline 1.3.
Cc1cccc(NC2SC(=O)N(c3ccccc3)C2=O)c1 (centres undefined) was read as KCNQ2 enhance 0.41 and KCNQ2 enhance baseline -0.75.
Screening CCCN1CCN(CCCNC(=O)c2cc3c(=O)[nH]c4ccccc4c3s2)CC1 returned KCNQ2 enhance 1.93 and KCNQ2 enhance baseline 2.88.
For CCC1CCCCN1CCCNC(=O)CC1Oc2ccc(C)cc2NC1=O (centres undefined) the results were KCNQ2 enhance 1.31 and KCNQ2 enhance baseline 0.39.
Screening Cc1cccc(OCC(=O)NCC(=O)N/N=C/c2cccs2)c1 returned KCNQ2 enhance 1.29 and KCNQ2 enhance baseline 1.3.
Screening Cc1nnc(NC(=O)C23CC4CC(CC(C4)C2)C3)s1 returned KCNQ2 enhance 0.05 and KCNQ2 enhance baseline -2.19.
Screening O=C(CN1C(=O)NC2(CCCC2)C1=O)N1CCc2ccccc2C1 returned KCNQ2 enhance 0.19 and KCNQ2 enhance baseline 0.
CCCc1nnc(NS(=O)(=O)c2ccc(OC)cc2)s1 was read as KCNQ2 enhance 0.02 and KCNQ2 enhance baseline -1.24.
Screening O=C(CSCc1ccccc1)N/N=C/c1ccc(OCC(=O)N2CCCCC2)cc1 returned KCNQ2 enhance 0.45 and KCNQ2 enhance baseline -1.5.
For O=C(NC1CCCC1)C1=COCCO1 the results were KCNQ2 enhance 1.02 and KCNQ2 enhance baseline 0.09.
`COC(=O)C1=C(C)NC2=C(C(=O)CC(C)(C)C2)C1c1ccsc1` (centres undefined) gave KCNQ2 enhance 0.3 and KCNQ2 enhance baseline 0.84.
Screening CCC(=O)c1ccc(OC(=O)/C=C/c2cc(OC)c(OC)c(OC)c2)cc1 returned KCNQ2 enhance 0.74 and KCNQ2 enhance baseline -0.01.

Quoted from above, 3 compounds:
For O=C(NC1CCCC1)C1=COCCO1 the results were KCNQ2 enhance 1.02 and KCNQ2 enhance baseline 0.09.
`COC(=O)C1=C(C)NC2=C(C(=O)CC(C)(C)C2)C1c1ccsc1` (centres undefined) gave KCNQ2 enhance 0.3 and KCNQ2 enhance baseline 0.84.
Screening CCC(=O)c1ccc(OC(=O)/C=C/c2cc(OC)c(OC)c(OC)c2)cc1 returned KCNQ2 enhance 0.74 and KCNQ2 enhance baseline -0.01.

(next part)
`Cc1ncc([N+](=O)[O-])n1S(=O)(=O)c1cc(Br)ccc1Br` gave KCNQ2 enhance 0.04 and KCNQ2 enhance baseline -0.7.
For CCCC(=O)NC(=S)c1c(C)n(C)n(-c2ccccc2)c1=O the results were KCNQ2 enhance 0.15 and KCNQ2 enhance baseline -0.11.
`CCOCC(=O)Nc1nc2c(s1)C(=O)CC(C)(C)C2` gave KCNQ2 enhance 0.13 and KCNQ2 enhance baseline -1.41.
`O=C(CNc1ccc2ccccc2c1)N/N=C/c1ccncc1` gave KCNQ2 enhance 0.17 and KCNQ2 enhance baseline 0.28.
Screening CC1(C)CC(CC(=O)NNc2nc(-c3ccccc3)cs2)C(=O)O1 (centres undefined) returned KCNQ2 enhance 0.42 and KCNQ2 enhance baseline -1.61.
`COCCNC(=O)CSc1nc2sccc2c(=O)n1-c1ccccc1` gave KCNQ2 enhance 0.98 and KCNQ2 enhance baseline 1.46.
`CC(C)NC(=S)N(C)C1(c2ccccc2Cl)CCCCC1=O` (centres undefined) gave KCNQ2 enhance 0.08 and KCNQ2 enhance baseline 0.23.
`COc1ccc(CC(=O)Nc2ccccc2-c2ccccc2)cc1OC` gave KCNQ2 enhance 1.08 and KCNQ2 enhance baseline -0.27.
O=C(NCC(c1ccco1)N1CCN(c2ccc(F)cc2)CC1)c1ccco1 (centres undefined) was read as KCNQ2 enhance 0.3 and KCNQ2 enhance baseline 1.38.
For COC(=O)COc1ccc2c(-c3ccc(OC)cc3)cc(=O)oc2c1 the results were KCNQ2 enhance 0.45 and KCNQ2 enhance baseline 0.01.
`COc1ccc(C2C(C(=O)O)CCC(=O)N2c2ccc(C)cc2)cc1OC` (centres undefined) gave KCNQ2 enhance 0.26 and KCNQ2 enhance baseline -0.26.
For COc1ccc(C(c2nnnn2CS(=O)(=O)c2ccc(C)cc2)N2CCN(Cc3ccccc3)CC2)cc1 (centres undefined) the results were KCNQ2 enhance 0.08 and KCNQ2 enhance baseline -0.08.
For O=C(CC1C(=O)NCCN1CC1CCCCC1)NCCCN1CCOCC1 (centres undefined) the results were KCNQ2 enhance 1.13 and KCNQ2 enhance baseline 1.68.
CCOC(=O)/C(C#N)=C1/C=Nc2ccccc2N1 was read as KCNQ2 enhance 2.3 and KCNQ2 enhance baseline 0.79.
`CC(C)n1c(SCc2ccc(Cl)cc2)nc2c1c(=O)[nH]c(=O)n2C` gave KCNQ2 enhance 1.05 and KCNQ2 enhance baseline -0.29.
For O=C(O)c1ccoc1CN1CCCCC1 the results were KCNQ2 enhance 0.32 and KCNQ2 enhance baseline -0.7.
Screening COc1cc(Cl)cc(C(=O)O)c1OCC(=O)O returned KCNQ2 enhance 0.16 and KCNQ2 enhance baseline -0.88.
`Cc1cc(S(=O)(=O)N2CCCC2)ccc1OCC(=O)N1CCOCC1` gave KCNQ2 enhance 1 and KCNQ2 enhance baseline 0.02.
Screening COc1cccc(/C=C/C(=O)NNC(=O)c2ccncc2)c1 returned KCNQ2 enhance 0.69 and KCNQ2 enhance baseline 0.
`COc1ccc(NC(=O)c2nc[nH]c2C(=O)N(C)Cc2ccccc2)cc1` gave KCNQ2 enhance 0.41 and KCNQ2 enhance baseline 0.02.
For CCN(CC(=O)Nc1ccc2c(c1)OCCO2)C(=O)c1ccc(C)c(S(=O)(=O)N2CCOCC2)c1 the results were KCNQ2 enhance 0.79 and KCNQ2 enhance baseline -1.74.
COCC(C)NC(=O)c1ccc2c(c1)S(=O)(=O)c1ccccc1C2=O (centres undefined) was read as KCNQ2 enhance 0.74 and KCNQ2 enhance baseline -0.38.
`CC(=O)N1CCOc2ccc(S(=O)(=O)N(C)c3cccc(C)c3)cc21` gave KCNQ2 enhance 0.01 and KCNQ2 enhance baseline 0.03.
Screening Cc1nn2c(COc3ccc(NC(=O)c4ccccc4)cc3)nnc2c2ccccc12 returned KCNQ2 enhance 2.07 and KCNQ2 enhance baseline -2.14.

5 structures out of the list, arranged by heavy-atom count, largest number first:
Screening Cc1nn2c(COc3ccc(NC(=O)c4ccccc4)cc3)nnc2c2ccccc12 returned KCNQ2 enhance 2.07 and KCNQ2 enhance baseline -2.14.
`Cc1cc(S(=O)(=O)N2CCCC2)ccc1OCC(=O)N1CCOCC1` gave KCNQ2 enhance 1 and KCNQ2 enhance baseline 0.02.
`CC(C)n1c(SCc2ccc(Cl)cc2)nc2c1c(=O)[nH]c(=O)n2C` gave KCNQ2 enhance 1.05 and KCNQ2 enhance baseline -0.29.
Screening COc1cccc(/C=C/C(=O)NNC(=O)c2ccncc2)c1 returned KCNQ2 enhance 0.69 and KCNQ2 enhance baseline 0.
CCOC(=O)/C(C#N)=C1/C=Nc2ccccc2N1 was read as KCNQ2 enhance 2.3 and KCNQ2 enhance baseline 0.79.

The results go on:
Screening CCOc1ccc(/C=N/Nc2cc(N3CCOCC3)nc(C)n2)c(O)c1 returned KCNQ2 enhance 0.29 and KCNQ2 enhance baseline -0.74.
Screening COc1ccc(Cc2noc(CN3CCCN(Cc4ccc(F)cc4)CC3)n2)cc1OC returned KCNQ2 enhance 0.47 and KCNQ2 enhance baseline 0.62.
For O=C(CCC1CCCCC1)NCCS(=O)(=O)N1CCN(c2ccccc2)CC1 the results were KCNQ2 enhance 0.19 and KCNQ2 enhance baseline -0.36.
Cc1ccc(NC(=O)c2cc(=O)[nH]c3ccc(S(=O)(=O)N4CCOCC4)cc23)nc1 was read as KCNQ2 enhance 0.18 and KCNQ2 enhance baseline -0.42.
Screening CCc1cc2c3c(c1)C1(C(=O)N3C(C)(C)C=C2C)C(C#N)=C(N)Oc2[nH]c(=O)[nH]c(=O)c21 (centres undefined) returned KCNQ2 enhance 0.39 and KCNQ2 enhance baseline -0.15.
